GIRK2 act: opens human GIRK2 potassium channels. HEK293-GIRK2 thallium flux, Thallos fluorescence. AID 1259325. calls only for hits at 25 µM. 0.05% of 63,000 active. P48051;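 active = among the strongest 0.2% of first-round signals and kept after retests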;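 note: first round at about 10 µM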
Target sequence (P48051 whole entry, looked up): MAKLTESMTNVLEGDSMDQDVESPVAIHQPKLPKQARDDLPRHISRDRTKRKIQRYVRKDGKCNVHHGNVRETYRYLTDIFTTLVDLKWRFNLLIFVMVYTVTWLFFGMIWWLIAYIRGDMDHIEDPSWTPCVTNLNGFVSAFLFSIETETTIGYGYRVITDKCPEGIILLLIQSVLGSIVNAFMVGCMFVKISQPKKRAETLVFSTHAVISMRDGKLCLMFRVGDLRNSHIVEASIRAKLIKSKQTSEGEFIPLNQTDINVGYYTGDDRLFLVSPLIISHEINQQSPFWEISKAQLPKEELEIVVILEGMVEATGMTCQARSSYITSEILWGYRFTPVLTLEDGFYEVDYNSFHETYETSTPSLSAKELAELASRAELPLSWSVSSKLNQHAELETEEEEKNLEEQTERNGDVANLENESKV
Calls only; i = inactive. A portion of the library; the hit share may differ from the screen's.

GIRK2 act	SMILES
i	COc1cccc(Cn2c(=O)c3sccc3n(Cc3nc(-c4cccc(OC)c4)no3)c2=O)c1
i	COc1ccc(F)cc1S(=O)(=O)N1CCN(S(=O)(=O)C2CC2)CC1
i	O=C(NCCc1ccc(F)cc1)c1cnn2c1OCCC2
i	Cc1oc(-c2ccc(OC(C)C)cc2)nc1Cn1nnc(C(=O)Nc2ccc(Cl)cc2)c1N
i	Cc1csc(CN2CCN(C(=O)c3ccccc3F)CC2)n1
i	COc1cc(C(=O)Nc2ccccc2OC(F)(F)F)on1
i	CCOc1nn(CC)cc1C(=O)Nc1nnc(SCCc2ccccc2)s1
i	COc1ccccc1-c1ccc(N2CCCC(C(=O)NCCc3c[nH]c4ccccc34)C2)nn1 (stereo not given)
i	Cc1cc(NC(=O)c2cccc([N+](=O)[O-])c2)n(-c2nc(-c3ccc(Cl)cc3)cs2)n1
i	CCOC(=O)C(Sc1nccn1C)C(=O)OCC
i	CCc1ccc(NC(=O)Cn2nc3c(Oc4cccc(OC)c4)nccn3c2=O)cc1
i	O=C(Cc1ccccc1Cl)Nc1cccc(-c2cnc3n2CCC3)c1
i	COc1cccc(C2=C(c3cn(C)c4ccccc34)C(=O)NC2=O)c1
i	CC(C)CC(=O)Nc1ccc(-n2cnc(C(=O)N3CCN(C(C)C)CC3)c2)nc1
i	O=C(NCc1ccc(Cl)cc1)N(Cc1ccsc1)CC(F)(F)F
i	CCOc1ccc(-n2c(C)c(C)n3c4c(=O)[nH]c(=O)n(C)c4nc23)cc1
i	CN(C)C(=O)c1nnn(-c2ccc(NC(=O)Nc3ccc4c(c3)OCO4)cc2)n1
i	NC(=O)CNC(=O)/C=C/c1cccs1
i	O=C(Nc1nc(-c2ccco2)cs1)C1(c2ccccc2)CCOCC1
i	CC(C)c1ccc2c(c1)C(=O)CC1C(C)(C(=O)O)CCCC21C (stereo not given)
i	Cc1nnc(CNC(=O)c2nnn(-c3nccs3)c2C)o1
i	CC(C)(C)NC(=O)CN1CCN(Cc2nc(-c3ccc(F)cc3)cs2)CC1
i	O=C(Cc1cccc2ccccc12)NCc1n[nH]c(=O)c2ccccc12
i	CCc1ccccc1NC(=O)N1CCN(c2ccc(-c3ccc4c(c3)OCO4)nn2)CC1
i	Cc1c(-c2nc(-c3ccccc3F)no2)nnn1-c1ccc(Cl)cc1
i	O=C(NCCc1ccccc1)Nc1ccc2c(c1)N(S(=O)(=O)c1ccccc1)CCC2
i	CCCOCCCCCCCCCC(=O)O
i	Cc1ccc(NC(=O)c2ccoc2COc2ccc(C)cc2)cc1
i	O=C(Nc1cnc(-n2cccn2)nc1)c1c(F)cccc1Cl
i	O=C(Oc1ccc(/C=C/c2ccncc2)cc1)C1CC1
i	COc1ccc(Cl)cc1NC(=O)NCCNc1ccc(C)nn1
i	Cc1nc2ccc(NC(=O)c3ccc([N+](=O)[O-])cc3)cc2c(=O)n1-c1ccc(F)cc1
i	COc1cc(NS(=O)(=O)c2ccc(Cl)s2)ncn1
i	Cc1cc(C)n(-c2cc(NC(=O)/C=C/c3ccc(F)cc3)ncn2)n1
i	O=C(C1COCC(=O)N1Cc1cccs1)N1CCN(c2ccccc2)CC1 (stereo not given)
i	Cc1cc(C)n(-c2cc(NC(=O)C3CC(=O)N(c4ccc(C)c(C)c4)C3)ncn2)n1 (stereo not given)
i	O=C(Nc1ccc2c(c1)OCO2)N(Cc1ccoc1)Cc1cccs1
i	C[C@@H]1CCC2C(C)(C)[C@H](O)CC[C@]2(C)[C@@]12Cc1c(O)cc3c(c1O2)CNC3=O (stereo not given in full)
i	COc1ccc(Oc2c(C(F)(F)F)oc3c4c(ccc3c2=O)OCN(Cc2ccccn2)C4)cc1
i	Nc1nc2ccc(Cl)cc2c2nc(-c3ccco3)nn12
i	Cc1ccc(N2CCC(C(=O)N3CCN(c4ccc(F)c(Cl)c4)CC3)CC2)nn1
i	Cc1nnc(C2CCCN(C(=O)c3cc(-c4ccc5c(c4)OCO5)n[nH]3)C2)s1 (stereo not given)
i	CNC(=O)Cc1ccc(-n2c(=O)c3ccccc3n(CC(=O)Nc3ccccc3OC)c2=O)cc1
i	Cc1nc(-n2nnc(C(=O)Nc3ccc(OC(F)(F)F)cc3)c2C)sc1C
i	Cc1cc(C)c(C)c(S(=O)(=O)NCC(=O)N2CC(C)CC(C)C2)c1C (stereo not given)
i	C=CCSc1nnc(-c2ccc(S(=O)(=O)N3CCCCCC3)cc2)o1
i	CC(=O)N1CCN(c2ccnc3c2c(=O)n(Cc2cccc(F)c2)c(=O)n3C)CC1
i	Cc1ccc(C)c(S(=O)(=O)Nc2ccc3c(c2)CCCN3C(=O)c2ccccc2)c1
i	O=C(Nc1sc2c(c1-c1nc3ccccc3s1)CCCC2)c1cccnc1
i	CCOc1ccccc1NC(=O)CN1CCc2nc(NC(=O)c3ccccn3)sc2C1
i	Cc1cc(C(=O)N2CCC3(CC2)OCCS3)no1
i	CCOc1ccc(CN2C(=O)C(NC(C)=O)c3cccc(Cl)c32)cc1 (stereo not given)
i	CC(C)(C)c1ccc(NC(=O)NCCC(O)C2CC2)cc1 (stereo not given)
i	Cc1cccc(N(C)S(=O)(=O)c2ccsc2C(=O)Nc2ccc3c(c2)OCCO3)c1
i	CCCCc1ccc(-n2c(C)c(C)n3c4c(=O)n(CC(=O)OC)c(=O)n(C)c4nc23)cc1
i	CCn1c(SCC(=O)c2ccccc2)nc2c1c(=O)[nH]c(=O)n2C
i	CC1(C)CC(O)CC(C)(C)N1CC(O)COc1cccc2ccccc12 (stereo not given)
i	COc1cc(C)c(N(C)C(=O)CN(C)C)cc1Nc1nc(Nc2cccc(F)c2C(N)=O)c2cc[nH]c2n1
i	COc1ccc2c(c1)c(CC(=O)Nc1ccc3ccccc3c1)c(C)n2C(=O)c1ccc(Cl)cc1
i	NC(=O)c1ccccc1OCC#CCNC(=O)/C=C/c1ccc2c(c1)OCO2

7 entries drawn at random from the list so far:
GIRK2 act	SMILES
i	Cc1cc(C)n(-c2cc(NC(=O)/C=C/c3ccc(F)cc3)ncn2)n1
i	Cc1nc2ccc(NC(=O)c3ccc([N+](=O)[O-])cc3)cc2c(=O)n1-c1ccc(F)cc1
i	Cc1ccc(C)c(S(=O)(=O)Nc2ccc3c(c2)CCCN3C(=O)c2ccccc2)c1
i	COc1cc(C)c(N(C)C(=O)CN(C)C)cc1Nc1nc(Nc2cccc(F)c2C(N)=O)c2cc[nH]c2n1
i	O=C(C1COCC(=O)N1Cc1cccs1)N1CCN(c2ccccc2)CC1 (stereo not given)
i	O=C(Nc1sc2c(c1-c1nc3ccccc3s1)CCCC2)c1cccnc1
i	CCOc1ccccc1NC(=O)CN1CCc2nc(NC(=O)c3ccccn3)sc2C1

Following part
GIRK2 act	SMILES
i	CCOc1ccccc1NC(=O)Nc1cnc(N2CCN(c3ccccn3)CC2)nc1
i	O=C(CSc1cc(N2CCCC2)ncn1)Nc1ccc(Br)cc1F
i	O=C(CSc1nc2c(sc(=S)n2-c2ccc(Cl)cc2)c(=O)[nH]1)NCc1ccco1
i	Cc1ccc(-c2noc(-c3ccc(=O)n(CC(=O)N(C)c4ccccc4)c3)n2)cc1
i	CC(C)NC(=O)CCn1c(=O)c2cc(Cl)ccc2n2c(=O)n(CC#N)nc12
i	O=C(Nc1ccc(N2CCCS2(=O)=O)cc1)c1ccccc1[N+](=O)[O-]
i	COCCNC(=O)Cn1nc(-c2ccc(F)cc2)c2sc(N3CCCC3)nc2c1=O
i	CCOc1cn(C)c(C(=O)NCc2ccc3c(c2)OCO3)cc1=O
i	O=C1COc2ccc(Cl)cc2CN1CC1COCCO1 (stereo not given)
i	O=C(C1CCCC1)N1CCN(c2cc(-n3cccn3)ncn2)CC1
i	Cc1cccc(NC(=O)CSc2nccn2-c2cccc(C(=O)NCc3ccco3)c2)c1C
i	Cc1nc(N2CCN(S(=O)(=O)c3ccccc3Cl)CC2)cc(-n2cccc2)n1
i	O=C(c1ccc(Cl)s1)N1CCN(CC(O)c2ccco2)CC1 (stereo not given)
i	Cc1ccc(NC(=O)CN2CCC(c3nc(-c4cccc(F)c4)no3)CC2)cc1F
i	O=C(CSc1nccn1-c1cccc(C(=O)NCc2ccccc2)c1)NC1CCCCC1
i	CC(C)NC(=O)c1nnn(-c2cccc(Br)c2)c1N
i	Cc1ccc(Cn2c(=O)c3c(nc(N4CCOCC4)n3C)n(C)c2=O)cc1
i	CCCN1C(=O)C(C)(C)COc2cc(NC(=O)Nc3ccc4c(c3)OCO4)ccc21
i	Cc1nnsc1C(=O)N1CCN(c2cc(Nc3ccccn3)ncn2)CC1
i	O=C(CCn1c(=O)[nH]c2ccccc2c1=O)N1CCN(c2cccc(C(F)(F)F)c2)CC1
i	C=CCc1cccc2cc(C(=O)N3CCN(c4cc(C)ccc4C)CC3)c(=O)oc12
i	O=C(Cc1cc(=O)[nH]c(SCc2ccccc2)n1)N1CCN(c2ccccc2F)CC1
i	O=C(Nc1ccc2c(=O)c3cccc(Cl)c3oc2c1)c1cccc(F)c1
i	CC(=O)Nc1cccc(NS(=O)(=O)CCOc2ccccc2)c1
i	Cc1nc2ccc(NC(=O)c3ccc(F)c(F)c3)cc2c(=O)n1-c1ccc(F)cc1
i	COCCNC(=O)c1cc2c(=O)n3ccccc3nc2n1Cc1ccccc1
i	Fc1cc(F)cc(-c2nnc(Cc3nc(-c4ccc(Br)cc4)no3)o2)c1
i	COc1ccccc1N1C(=O)N(Cc2cccc(C)c2)c2ccccc2S1(=O)=O
i	CCn1c(=O)c2c(nc3n2CCCN3c2cc(C)ccc2OC)n(C)c1=O
i	COc1ccc2nc(N(CCN3CCOCC3)C(=O)c3ccc([N+](=O)[O-])o3)sc2c1
i	C#CCOCC1CCN(C(=O)CCS(=O)(=O)c2ccccc2)CC1
i	O=C(c1cc(-c2ccc(F)cc2)c[nH]1)N1CCN(c2ccccc2O)CC1
i	CC(C)(c1ccccc1)c1ccc(OCC(=O)NCCC(=O)O)cc1
i	COc1cc(NC(=O)C2CSCCC(=O)N2)cc(OC)c1OC (stereo not given)
i	COc1ccccc1-c1nc(-c2cn(Cc3ccc(F)cc3)nn2)no1
i	CCN(CC)CCOc1ccc(/C(=C(\Cl)c2ccccc2)c2ccccc2)cc1
i	Cn1ccc(C(=O)N=c2sc3cc(F)ccc3n2C)n1
i	CCCc1nnsc1C(=O)N1CCN(CC(=O)c2ccco2)CC1
i	CC(CCc1ccccc1)NC(=O)Cn1ccc2ccccc21 (stereo not given)
i	Cc1cc(C)cc(NC(=O)Cn2c(=O)n(Cc3cccs3)c(=O)c3ncccc32)c1
i	COC(=O)N1CCC(CNC(=O)C(=O)Nc2cc3c4c(c2)CCN4C(=O)CC3)CC1
i	O=C(c1ccc(Oc2ccccc2)cc1)N1CCOCC1CO (stereo not given)
i	CCOC(=O)CCn1c(=O)c2c(nc3n(-c4ccc(OC)cc4)c(C)c(C)n23)n(C)c1=O
i	COc1ccc(Cn2c(-n3nc(C)cc3C)nc3c2c(=O)n(CC(N)=O)c(=O)n3C)cc1
i	COc1cccc(NC(=O)CSc2nccc(N3CCN(c4ccccc4OC)CC3)n2)c1
i	O=C(COc1ccc(Cl)cc1Cl)NCC1(c2ccc(F)cc2)CCOCC1
i	O=C(NCC1CCN(Cc2cccs2)CC1)C(=O)NC1CCCCC1
i	CN(C)S(=O)(=O)c1ccc(C(=O)N2CCN(c3ccccc3F)CC2)o1
i	CCOC(=O)/C(C#N)=C1\SC(Cc2ccccc2)C(=O)N1c1ccc(F)cc1 (stereo not given)
i	O=C(CSc1cc(NCc2ccc(Cl)cc2)ncn1)Nc1ccccc1C(F)(F)F
i	CSc1ncccc1C(=O)N1CCC(CNC(=O)c2c(C)nc3ccccn23)CC1
i	COc1ccc(OC)c(-c2cn3ccn(-c4cccc(Cl)c4C)c(=O)c3n2)c1
i	Cc1nc(-n2nc(C3CC3)cc2NC(=O)COc2ccc3ccccc3c2)[nH]c(=O)c1C
i	COc1ccc(-n2c(C)nc3ccc(NC(=O)c4ccccn4)cc3c2=O)cc1
i	Cc1ccc(-n2nnc(C(=O)NCc3ccc(F)cc3)c2-c2cccnc2)cc1
i	COc1cc(C(=O)Nc2cc3c4c(c2)CCN4C(=O)CC3)cc(OC)c1OC
i	Cn1c(=O)c2cc(C(=O)Nc3ccc(F)c(Cl)c3)sc2n(C)c1=O
i	COC(=O)c1ccc2c(=O)n(CC(=O)NCc3ccco3)c(=S)[nH]c2c1
i	COc1ccc(OCC(=O)NCC(c2cccs2)N(C)C)cc1 (stereo not given)
i	O=C(c1ccc2nc[nH]c2c1)N1CC(c2nc(-c3ccco3)no2)C1

In the list so far, these contain a CF3 group.
GIRK2 act	SMILES
i	COc1cc(C(=O)Nc2ccccc2OC(F)(F)F)on1
i	O=C(NCc1ccc(Cl)cc1)N(Cc1ccsc1)CC(F)(F)F
i	COc1ccc(Oc2c(C(F)(F)F)oc3c4c(ccc3c2=O)OCN(Cc2ccccn2)C4)cc1
i	Cc1nc(-n2nnc(C(=O)Nc3ccc(OC(F)(F)F)cc3)c2C)sc1C
i	O=C(CCn1c(=O)[nH]c2ccccc2c1=O)N1CCN(c2cccc(C(F)(F)F)c2)CC1
i	O=C(CSc1cc(NCc2ccc(Cl)cc2)ncn1)Nc1ccccc1C(F)(F)F

Continuation.
GIRK2 act	SMILES
i	COc1ccccc1NC(=O)Cn1cnc2c([nH]c3ccc(C)cc32)c1=O
i	O=C(Oc1ccccc1)N1CCC(CNC(=O)C2(c3ccc(Cl)cc3)CCCC2)CC1
i	O=C(Cn1nc2c(Sc3ccccc3)nccn2c1=O)Nc1ccc2c(c1)OCCO2
i	CCOCCCn1c(C)cn2c3c(=O)n(Cc4ccccc4Cl)c(=O)n(C)c3nc12
i	Cc1ccc(C)c(COc2cccc(N3CCn4c3nc3c4c(=O)n(C)c(=O)n3C)c2)c1
i	CN1C(=O)C(C)(C)COc2ccc(NC(=O)NCc3ccc(F)cc3)cc21
i	Cc1noc(C2CCN(C(=O)CCCc3ccccc3)CC2)n1
i	Cn1nnn(-c2ccc(NC(=O)c3ccccc3Br)cc2)c1=O
i	O=C(CSc1nnc(N2CCN(c3ccc(F)cc3)CC2)s1)Nc1ccccc1F
i	O=C(O)c1ccccc1-n1cnnn1
i	O=C(CSc1nccc(N2CCCC2)n1)Nc1ccccc1Br
i	O=C(Nc1cccs1)N1CCC(CSCc2ccco2)CC1

Rewritten in CSV form: part of the list above.
Compound,GIRK2 act
Cc1c(-c2nc(-c3ccccc3F)no2)nnn1-c1ccc(Cl)cc1,i
O=C(NCCc1ccccc1)Nc1ccc2c(c1)N(S(=O)(=O)c1ccccc1)CCC2,i
